Source: PubChem BioAssay (several laboratories)
UUG fidelity: modulators of start codon recognition fidelity in yeast; S. cerevisiae UUG-firefly luciferase reporter, luminescence/redox ratio; activity score, % at 18.7 µM; actives 0.13% (n = 350,000); AID 602363;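 active means replicate mean at a twofold rise or more, about +100% in these data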;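 further: firefly luciferase made from a UUG start codon reports start codon fidelity; reporter light over untreated wells divided by growth signal over untreated wells; some hits fall short of that in this replicate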
MT1-MMP act inh: MT1-MMP (human) activation inhibition; P50281; HT1080 RFP-PRO-GFP cells, GFP/RFP ratio fluorescence, overnight; percent of plate control window, DMSO zero; GFP/RFP ratio change, % at 20 µM; actives 0.061% (n = 360,000); AID 651647;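 active means GFP/RFP ratio change of at least 30% with cell ATP level not reduced by more than half and red fluorescence within 50% of control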; further: strong numbers were not always called active
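Assay system: RFP-PRO-GFP reporter HT1080 cells; read-out basis: GFP/RFP fluorescence ratio; benchmarks: DMSO wells and RFP-L50D-GFP cells; doses: 20 µM single dose, 1% DMSO; schedule: overnight cell settling, then overnight compound exposure, 37 °C, 5% CO2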
eIF4H inh: inhibitors of RNA binding by human eIF4H | eIF4H fluorescence polarization binding assay | inhibition, % at 35 µM | actives 0.94% (n = 290,000);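 active means 50% or more with normal probe brightness, or confirmed in later tests; inconclusive means above 50% with abnormal brightness, or retests that disagree; inactive means below 50% or failed in later tests; about a fifth of its hits are not listed in these tables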;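 further: calls also rest on retests at 20 µM and on dose response follow-up; 0% = protein and probe with vehicle and 100% = probe without protein; strong numbers were not always called active; many hits fall short of the cut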
CSC inhib: cancer stem cell inhibition; cancer stem cell-like cells viability, luminescence; inhibition, % at 7.5 µM; actives 1.1% (n = 300,000);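 active means mean at 75% or more and at least half the replicates too; inconclusive means mean and replicates disagree; tested in HMLE shEcad cells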;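 further: 0% = median of negative and 100% = median of positive control wells; the first replicate is given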
Rce1 inh: blocks yeast Ras-converting enzyme; Q03530; yeast membranes, quenched prenylated peptide cleavage fluorescence; calls only; actives 0.27% (n = 290,000);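 active means fall in fluorescence gain of 50% or more versus controls, with final raw signal at or below 3038400; inconclusive means same 50% fall but final raw signal above 3038400; inactive means fall in fluorescence gain under 50%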;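 further: plate controls were neutral control wells for no effect and wells lacking membranes for full effect; tested at 10 µM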
Target sequence (Q03530 whole entry, looked up): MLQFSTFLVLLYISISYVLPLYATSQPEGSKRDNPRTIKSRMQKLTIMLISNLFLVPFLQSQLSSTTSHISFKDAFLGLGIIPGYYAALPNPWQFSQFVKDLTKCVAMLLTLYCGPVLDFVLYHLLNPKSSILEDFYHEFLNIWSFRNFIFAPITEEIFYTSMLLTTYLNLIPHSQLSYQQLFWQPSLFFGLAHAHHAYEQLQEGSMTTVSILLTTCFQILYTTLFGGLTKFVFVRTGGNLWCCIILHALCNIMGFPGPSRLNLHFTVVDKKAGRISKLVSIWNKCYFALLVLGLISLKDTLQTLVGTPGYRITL
Env fusion inh: blocks HIV Env-driven cell-cell fusion; actives 1.1% (n = 360,000); inhibition, % at 12.3 µM; HeLa-JRFL Env/CEM21 cell fusion, luciferase;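 active means mean replicate inhibition score of at least 50 and every replicate individually at or above 50; inconclusive means only one of the two criteria met; inactive means mean below 50 and not all replicates reaching 50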;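 further: 0% = plate neutral controls and 100% = maraviroc near 300 nM; one replicate is shown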
PABP FP inh: PABP-poly(A) binding inhibition; inhibition, % at 35 µM; actives 1% (n = 290,000); P11940; PABP-poly(A) RNA binding, fluorescence polarization;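 active means 50% or more with normal probe brightness, or confirmed in later tests; inconclusive means above 50% with abnormal brightness, or retests that disagree; inactive means below 50% or failed in later tests; about a fifth of its hits are not listed in these tables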;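 further: calls also rest on retests at 20 µM and on dose response follow-up; controls were probe without protein and protein plus probe with vehicle; some compounds called inactive have numbers as strong as hits; many hits fall short of the cut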
PABP FP inh retest: second read-out of PABP FP inh, no call of its own (marks repeat the call); inhibition, %; compound at 20 µM; confirmation repeats;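 mean of two retest wells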
MT1-MMP act inh RFP: also measured in MT1-MMP act inh; calls as there; RFP signal change, %; measured here: RFP expression control read;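 0 = vehicle wells; hits needed this value within 50% of zero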
Starred values were filed as active, the others as inactive; i = inactive; ? = inconclusive; / = no result given; & = joins results of further samples. Some of the compounds tested; rates above refer to the full screens.

SMILES | UUG fidelity | MT1-MMP act inh | MT1-MMP act inh RFP | eIF4H inh | CSC inhib | Rce1 inh | Env fusion inh | PABP FP inh | others
Cc1cc(OCC(=O)c2cccc(C(F)(F)F)c2)n2cnnc2n1 | -19 | 0 | 0 | -12 | -14 | i | 10 | 4
COc1ccc(C(=O)Nc2cc3c(cc2Cl)OCCCO3)cc1 | -24 | 2 | -2 | -11 | 2 | i | / | 9
COC(=O)CCCC(=O)N1CCC(CO)(CCc2ccccc2)CC1 | 14 | -7 | 0 | -2 | -21 | i | 1 | -1
CCOc1nc(NCCN2CCOCC2)nc(NC(C)C)n1 | 0 | 15 | 12 | -7 | 0 | i | 7 | -2
Cc1ccc(Cl)cc1NC(=O)N[C@@H](C)C(=O)O | -2 | -1 | -2 | -5 | -3 | i | / | -6
COc1cccc(OC)c1NC(=O)CN1CCC(NC(=O)c2cccc(F)c2)CC1 | -20 | 1 | 1 | -3 | 6 | i | / | -2
COc1ccc(CNC(=O)COC(=O)c2c(-c3c(F)cccc3Cl)noc2C)cc1OC | -4 | -1 | -1 | 9 | 7 | / | -27 | -1
O=C1CCc2cc(S(=O)(=O)NC(Cc3ccccc3)C(=O)NCCC3=CCCCC3)ccc2N1 (stereo not given) | 0 | 0 | -4 | -3 | -5 | i | 2 | -8
COc1ccc(OCC(=O)NNC(=O)c2cccc(O)c2)cc1 | / | -1 | -2 | 2 | -2 | i | -3 | 12
Cc1cc(=O)[nH]c(-n2[nH]c3c(c2=O)CCCC3)n1 | -18 | -57 | -1 | 14 | 0 | / | -16 | 17

2 consecutive records already listed, quoted:
SMILES | UUG fidelity | MT1-MMP act inh | MT1-MMP act inh RFP | eIF4H inh | CSC inhib | Rce1 inh | Env fusion inh | PABP FP inh | others
Cc1cc(OCC(=O)c2cccc(C(F)(F)F)c2)n2cnnc2n1 | -19 | 0 | 0 | -12 | -14 | i | 10 | 4
COc1ccc(C(=O)Nc2cc3c(cc2Cl)OCCCO3)cc1 | -24 | 2 | -2 | -11 | 2 | i | / | 9

The list goes on.
SMILES | UUG fidelity | MT1-MMP act inh | MT1-MMP act inh RFP | eIF4H inh | CSC inhib | Rce1 inh | Env fusion inh | PABP FP inh | others
CC(=O)Nc1cc(S(=O)(=O)Nc2ccc(C)cc2)c(C)cc1C | -5 | 1 | 3 | 3 | 9 | i | / | -1
Cc1cc(N2CCN(c3ccccc3)CC2)n2cc(-c3ccccc3)nc2n1 | -5 | 4 | -5 | -5 | 19 | i | -8 | -1
COc1ccc(C(=O)O)cc1S(=O)(=O)N1CCSCC1 | -26 | 1 | 7 | -10 | / | i | -3 | -1
COc1ccc(Nc2n[nH]c(C)c2[N+](=O)[O-])cc1 | / | 1 | -1 | -4 | -5 | / | 5 | -10
Cc1ccc(S(=O)(=O)Nc2ccc3c(c2)c2c(n3S(=O)(=O)c3ccc(C)cc3)CCCC2=O)cc1 | -27 | -23 | -16 | -6 | 12 | i | -2 | -11
Cc1ccc([N+](=O)[O-])cc1S(=O)(=O)N1CCN(C)CC1 | / | -1 | 1 | 4 | -4 | i | 5 | 4
CCCOC(=O)c1c(-c2ccccc2)nc(CC)c(C(=O)SCC)c1CCC | -26 | -3 | -4 | / | 47 | / | 16 | /
N#Cc1ccc2[nH]cc(CCO)c2c1 | -12 | 0 | 2 | -9 | -6 | i | -10 | 1
Cc1ccc(N(Cc2ccc(C(=O)NN=C3CCN(C)CC3)cc2)S(C)(=O)=O)cc1C | / | 0 | 2 | 1 | 11 | i | / | 0
CNC(=S)N(CCc1c(C)[nH]c2ccc(F)cc12)Cc1ccco1 | -3 | -4 | 2 | 10 | 8 | i | 3 | 2
O=C(c1cc(-c2cccc(Cl)c2)on1)N1CCCCCC1 | -5 | -1 | 4 | -5 | 3 | i | -41 | 1
Cc1ccc(NC(=O)C(=O)NCCN2CCN(S(=O)(=O)c3ccccc3)CC2)cc1C | / | -2 | 1 | -1 | -7 | i | 18 | 6
CCC/C(=C1/c2ccccc2C(=O)N1c1ccccc1)c1ccc2[nH]ccc2c1 | -18 | -1 | -11 | / | 135* | / | 42 | /
O=c1[nH]c2ccc(Cl)cc2[nH]1 | -22 | -4 | 3 | / | / | / | -106 | /
CC1CCCC(NC(=O)C2CCCN2S(=O)(=O)c2cccc3nsnc23)C1C (stereo not given) | -5 | 3 | -1 | -3 | -13 | i | -20 | 25
NC(=O)[C@H]1CC2(CC(c3cccc(NC(=O)COc4ccc(Cl)cc4)c3)=NO2)CN1C(=O)c1ccccc1C(=O)c1ccccc1 (stereo not given in full) | -6 | 3 | -2 | 0 | 9 | i | 1 | 1
O=C(NCCCn1ccnc1)c1cccc(S(=O)(=O)N2CCCCCC2)c1 | -11 | 6 | -1 | 1 | ? | i | 19 | -16
CCCCOc1ccc(C(=O)Nc2ccc(N3CCN(C(=O)C(C)C)CC3)cc2)cc1 | -16 | -4 | -13 | -3 | / | i | / | 21
CS(=O)(=O)N(Cc1ccc(C(=O)NCCSc2ccccn2)cc1)c1ccccc1 | / | -8 | 0 | 0 | 9 | i | / | 8
CN(C)CCCNC(=O)c1cc(S(=O)(=O)N2CCOCC2)ccc1F | -1 | 6 | 1 | -8 | -1 | i | / | -7
CC(=O)NCCn1c(SCC(=O)NCC2CCCO2)nc2ccccc2c1=O (stereo not given) | -16 | 9 | 7 | -10 | / | i | -20 | 24
N#C/C(=C\c1ccc(N2CCOCC2)o1)C(=O)N1CCOCC1 | 2 | -35 | 2 | ? | -19 | i | -13 | -2
COc1ccc(S(=O)(=O)N2CCC(C(=O)NCC3CCCO3)CC2)cc1 (stereo not given) | 1 | 2 | 1 | 0 | -1 | i | -89 | -18
COc1ccc(S(=O)(=O)N2CCc3ccccc32)cc1C(=O)OCC(=O)c1c(N)n(C)c(=O)n(C)c1=O | / | -3 | -4 | -5 | 6 | i | -2 | -13
OC[C@@H]1CN(Cc2cccs2)C[C@H](n2cnc3c(N4CCOCC4)ncnc32)O1 | -7 | 0 | 1 | / | / | / | -5 | /
CCOC(=O)CC1COCCN1Cc1cn[nH]c1-c1cc(OC)c(OC)c(OC)c1 (stereo not given) | -9 | 0 | 2 | -4 | -7 | i | -22 | -4
O=C(CCl)N1c2ccccc2OCC1c1ccccc1 (stereo not given) | / | 0 | 1 | -7 | -11 | i | 22 | 0
Cc1cccc(OCC(=O)N2CCC(c3ccccc3)C2)c1 (stereo not given) | -8 | -4 | -2 | -6 | / | i | / | 0
COCCNC(=S)NNC(=O)c1ccco1 | -8 | 7 | 2 | -4 | -7 | i | -12 | 12
CC(=O)Nc1ccc2c(c1)OCCOCCOc1cc(NC(C)=O)ccc1OCCOCCOCCO2 | / | / | / | 5 | -10 | i | / | 9
O=C(CSc1nc(C2CC2)nc2c1cnn2-c1ccccc1)Nc1c[nH]c(=O)[nH]c1=O | -6 | -7 | -5 | 18 | -22 | i | 9 | -5
Cc1ccc(NC2CCCN(C(=O)CCC3=NNC(=O)CC3)C2)cc1C (stereo not given) | -10 | 1 | 2 | -2 | -1 | i | 13 | 0
CCCCN1C(N)=NC[C@@H]1C(C)O (stereo not given in full) | -13 | -3 | 3 | / | -9 | i | 8 | /
COc1ccc(S(=O)(=O)NNC(=O)c2cc3c4ccccc4n(C)c3s2)cc1 | -19 | -2 | 2 | -11 | -4 | i | -219 | 2
COc1ccc(NC(=O)C23CC4CC(C2)CC(n2cnc(Br)n2)(C4)C3)c(C)c1 | -7 | 5 | 1 | -11 | / | i | -6 | -8
Cc1ccc(NS(=O)(=O)c2cc(NC(=O)c3cc4c(s3)CCCC4)ccc2C)c(C)c1 | -26 | -14 | -24 | 8 | 22 | i | 6 | -1
CCN(CC(=O)Nc1ccc(OC)cc1)C(=O)c1ccc(N2CCCC2=O)cc1 | -13 | -2 | 3 | / | / | / | 3 | /
COc1ccccc1-c1nnc(SC(C)C(=O)N2CCOCC2)o1 (stereo not given) | -19 | 1 | 2 | / | -6 | i | -1 | /
CC(=O)NC(c1cccc(F)c1)c1nc(-c2cccc(C(=O)O)c2)cs1 (stereo not given) | -8 | -1 | 4 | / | / | / | -15 | /
COCCC1CCCCN1C(=O)c1ccc(OC)c(OC2CCN(C(C)=O)CC2)c1 (stereo not given) | -2 | 2 | 3 | 1 | 1 | i | -7 | -4
CCc1nc2c(OCC(=O)C(C)(C)C)cccn2c1N(C=O)CC(=O)N(C)C | -11 | -1 | 4 | / | / | / | i | /
COC(=O)CCCCCC(CCC(=O)OC)NC(C)=O (stereo not given) | -11 | 4 | 2 | 3 | -12 | i | -28 | 7
COc1ccc(S(=O)(=O)Nc2cccc3c2O[C@@H](CN(C)CC2CC2)[C@@H](C)CN([C@@H](C)CO)C3=O)cc1 | 6&4 | 3 | 6 | / | -17 | / | -28 | /
Cc1ccc(C(CC(=O)O)Nc2nc(N3CCOCC3)nc(N3CCOCC3)n2)cc1 (stereo not given) | / | -2 | 0 | -3 | -19 | i | 5 | -2
CCCNC(=O)c1cc(Cl)c(NC(=O)C2=C(C)OCCS2)cc1OC | -8 | 1 | -2 | 0 | -3 | i | -10 | 8
Cc1ccc(NC(=O)CCn2cnc3cc(C)c(C)cc32)cc1 | -21 | 4 | 2 | 0 | -6 | i | / | -1
O=C(NCc1nc2ccccc2[nH]1)c1ccc([N+](=O)[O-])cc1 | / | -1 | -3 | -3 | 10 | i | -5 | 5
COc1cccc(C2=CC(=O)CC(C)(C)C2=O)c1 | -29 | 3 | 3 | / | / | / | 2 | /
O=S(=O)(c1ccc(Cl)c(NC(=S)N/N=C/c2ccc(O)cc2)c1)N1CCOCC1 | / | -5 | -23 | 0 | 6 | i | / | -14
Cc1cccnc1NC(=O)CSc1ncnc2sc(C)c(C)c12 | -16 | 1 | 7 | / | / | i | -44 | /

Later entries
SMILES | UUG fidelity | MT1-MMP act inh | MT1-MMP act inh RFP | eIF4H inh | CSC inhib | Rce1 inh | Env fusion inh | PABP FP inh | others
O=C(c1ccc2c(c1)N(Cc1ccccc1)CCS2)N1CCOCC1 | -8 | 1 | 1 | -9 | -6 | i | 4 | 1
COc1cc(NC(C)C(=O)N2CC(C)OC(C)C2)cc(OC)c1 (stereo not given) | 14 | 3 | 4 | ? | 8 | i | / | 51* | PABP FP inh retest=72*
CCC(=O)/C=C1\Sc2ccccc2N1CC | / | -1 | 2 | -4 | -3 | i | -21 | 8
Cc1cc(OC(=O)C(c2ccccc2)c2ccccc2)c([N+](=O)[O-])c(=O)[nH]1 | / | 2 | 5 | 6 | 7 | / | 11 | -17
CC12CCC(C(=O)N(NC(=O)c3cc(Cl)ccc3O)C1=O)C2(C)C (stereo not given) | -15 | 0 | 1 | -8 | -5 | ? | / | -6
O=C(Nc1ccc(F)c([N+](=O)[O-])c1)C1CCCO1 (stereo not given) | / | 1 | 0 | / | -17 | i | 1 | /
Cc1ccc(N(CC(=O)NC2CCCCC2)S(=O)(=O)c2c(C)noc2C)cc1 | 15 | 2 | -1 | -14 | -2 | i | 2 | 14
COc1ccc(S(=O)(=O)N2CCCCCC2)cc1C(=O)Nc1ccccn1 | -6 | -3 | -4 | 1 | / | i | 1 | 10
CCOC(=O)C1=C(C)NC(=O)NC1c1ccc(OCC(=O)Nc2ccccc2)c(OC)c1 (stereo not given) | -9 | 0 | -2 | 0 | 0 | i | -12 | -6
O=C(Oc1ccc(F)c(F)c1)c1ccc2c(=O)n3c(nc2c1)CCC3 | -14 | 2 | 1 | / | -3 | i | -22 | /
Cc1cccc(NC(=O)COC(=O)CCc2ccccc2)c1C | 9 | -2 | 4 | -5 | / | i | -12 | 10
CC(C)(C)OC(=O)NCCCCCNC(=O)c1[nH]cnc1C(=O)Nc1nccs1 | -5 | 3 | -5 | / | 1 | / | 31 | /
